Assay outcomes (PubChem)
VACV E9 pol inh = vaccinia E9 polymerase processive synthesis inhibitors, primary screen, biochemical, absorbance | Vaccinia virus DNA polymerase (E9) processive complex | in vitro processive DNA synthesis, absorbance read-out; hits give low values; some inactives read as strong as hits | normalized absorbance, % (test concentration not listed) | actives 0.94% (n = 46,000);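 active means replicate mean up to 90% and picked by the depositor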;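 further: 100% = median of the test wells of a plate; 100 nL library stock went into each well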
The depositor's hits bear a star.

How did COC(=O)C1=CN(c2cc(C)cc(C)c2)C=C(C(=O)OC)C1c1ccc(OC)c(O)c1 do in these assays?
VACV E9 pol inh: 80

How did COC(=O)CSc1nnc(CNC(=O)c2ccccc2F)n1Cc1ccccc1 do in these assays?
VACV E9 pol inh: 104

What do the screens show for `CCN1CCN(C(=O)NC(C(=O)N[C@@H]2C(=O)N3[C@@H]2SC(C)(C)[C@@H]3C(=O)O)c2ccccc2)C(=O)C1=O` (stereo partly specified)?
VACV E9 pol inh: 96

Results for O=C(Nc1ccccc1Cl)c1cc2c(s1)-c1ccccc1S(=O)(=O)C2 ?
VACV E9 pol inh: 98

How did O=C(CSC1CCCC1)c1cccc(C(F)(F)F)c1 do in these assays?
VACV E9 pol inh: 100

Results for CC(C)(C)C(=O)CSc1cccc2cccnc12 ?
VACV E9 pol inh: 102

How did Oc1ccccc1C=Nc1ccc2oc(-c3cccc(I)c3)nc2c1 do in these assays?
VACV E9 pol inh: 101

How did NC(=O)N/C(CSc1ccc(Cl)cc1)=N\O do in these assays?
VACV E9 pol inh: 100

What do the screens show for `Cc1nnc(NN2CCOCC2)[nH]c1=O`?
VACV E9 pol inh: 103

What do the screens show for `C(=N/n1cnnc1)/c1ccsc1`?
VACV E9 pol inh: 98

What do the screens show for `Cc1ccc(C)c(NC(=O)COC(=O)c2ccc[n+]([O-])c2)c1`?
VACV E9 pol inh: 109

What do the screens show for `CCCCc1cc2c(=O)c(-c3ccccn3)coc2cc1O`?
VACV E9 pol inh: 98

How did CC(C)CCNS(=O)(=O)c1cc(Br)cnc1N do in these assays?
VACV E9 pol inh: 98

What do the screens show for `Cc1cc(OCC(=O)NC(Cc2c[nH]c3ccccc23)C(=O)O)cc(C)c1Cl` (stereo unspecified)?
VACV E9 pol inh: 60*

What do the screens show for `O=C(Nc1ccc(Cl)cc1)c1cn(-c2ccccc2)nc1-c1cccnc1`?
VACV E9 pol inh: 108

How did N=C1c2ccccc2CN1c1ccc(O)c(C(=O)O)c1 do in these assays?
VACV E9 pol inh: 103

How did O=C(c1cc(S(=O)(=O)N2CCCCC2)c(Cl)cc1Cl)N1CCCCC1 do in these assays?
VACV E9 pol inh: 101

What do the screens show for `Cc1ccc2c(C)c(-c3ccccc3)c(=O)oc2c1`?
VACV E9 pol inh: 105

How did O=C1NCCN/C1=C/C(=O)c1ccc(Br)cc1 do in these assays?
VACV E9 pol inh: 99

What do the screens show for `COc1nc(NCCC2=CCCCC2)nc(N2CC3CC(C2)c2cccc(=O)n2C3)n1` (stereo unspecified)?
VACV E9 pol inh: 100

Results for CCC(=O)c1c[nH]c(C(=O)NC)c1 ?
VACV E9 pol inh: 98

How did Nc1ncnc2c1ncn2CCNCc1ccccc1 do in these assays?
VACV E9 pol inh: 103

How did COc1cc2cc(C(=O)O)cc(-c3ccc(C)cc3)c2cc1OC do in these assays?
VACV E9 pol inh: 95

What do the screens show for `COc1cc2c(cc1OC)C(=O)N(Cc1c(Cl)cccc1Cl)CC2`?
VACV E9 pol inh: 99

How did COc1ccc(C=C2C(=O)N(C)C(=S)N(C)C2=O)c(C)c1 do in these assays?
VACV E9 pol inh: 100

How did COc1ccc(S(=O)(=O)N2CCN(C)CC2)c(C)c1C do in these assays?
VACV E9 pol inh: 107

How did CC1(C)C2CC[C@@](C)(C2)C1NS(=O)(=O)c1ccc(-c2cc(C(F)(F)F)on2)s1 (stereo partly specified) do in these assays?
VACV E9 pol inh: 101

What do the screens show for `Cc1onc(-c2ccccc2Cl)c1C1=NCCO1`?
VACV E9 pol inh: 104

What do the screens show for `CCSC1=C(C#N)C(=O)NC(/C=C/c2ccccc2)S1` (stereo unspecified)?
VACV E9 pol inh: 108

Results for CC1CN(c2ccccc2)NC1=O (stereo unspecified) ?
VACV E9 pol inh: 98

Results for Cc1ccc(-n2ncc3c2ncn2nc(Cc4ccccc4)nc32)cc1 ?
VACV E9 pol inh: 100

What do the screens show for `Cc1c(O)c(C(=O)c2nn[nH]n2)c(=O)n(-c2ccccc2)c1-c1ccccc1`?
VACV E9 pol inh: 96

Results for O=C(O)c1ccc(-c2cn3cccnc3n2)cc1 ?
VACV E9 pol inh: 97

What do the screens show for `S=c1cc(-c2ccccc2)sc2ccccc12`?
VACV E9 pol inh: 94

How did Cc1ccc(C)c(CN2C(=O)c3ccccc3S(=O)(=O)c3ccc(C(=O)NCCN(C)C)cc32)c1 do in these assays?
VACV E9 pol inh: 93

How did CCc1nc2ccccc2c(C(=O)OCC(=O)NCc2ccccc2)c1C do in these assays?
VACV E9 pol inh: 107

How did N[C@@H](Cc1ccc(O)c(O)c1)C(=O)O do in these assays?
VACV E9 pol inh: 100

How did O=C(NCc1csc2ccc(Cl)cc12)c1ccc(C(F)(F)F)cc1 do in these assays?
VACV E9 pol inh: 100

Results for CCOC(=O)N1CCc2c(sc3c2c(=O)n(Cc2ccccc2)c(=O)n3CC(=O)NC(C)CC)C1 (stereo unspecified) ?
VACV E9 pol inh: 91

How did CCN1CCc2c(sc(N)c2C(=O)OC)C1 do in these assays?
VACV E9 pol inh: 105

What do the screens show for `CCc1ccccc1NC(=O)C(CC)n1c2ccccc2c2nc(=O)cc(C)n21` (stereo unspecified)?
VACV E9 pol inh: 97

What do the screens show for `CCC(C)Nc1ncnc2cc(OC)c(OC)cc12` (stereo unspecified)?
VACV E9 pol inh: 96

Results for COC(=O)c1ccccc1NC(=O)CSc1nc2ccccc2s1 ?
VACV E9 pol inh: 100

Results for O=C(Nc1cc(Cl)ccc1Cl)c1cccn(OCc2ccc(F)cc2)c1=O ?
VACV E9 pol inh: 97

What do the screens show for `O=C(COC(=O)CSc1ccc2ccccc2c1)NC1CCCC1`?
VACV E9 pol inh: 93

Results for CN(C)CCOC(c1ccccc1)c1ccccc1 ?
VACV E9 pol inh: 100

Results for O=C(NC1CCCC1)c1cc2c(Cl)nc3ccccc3c2s1 ?
VACV E9 pol inh: 103

What do the screens show for `Cn1c(=O)c2c(nc(SCC(=O)Nc3ccccc3F)n2Cc2ccccc2)n(C)c1=O`?
VACV E9 pol inh: 100

Results for O=C(O)c1cc(-c2cccs2)nc2ccc(Br)cc12 ?
VACV E9 pol inh: 34*

Results for N#Cc1ccc(C23CC4CC(CC(C4)C2)C3)nc1SCCN1CCCCC1 ?
VACV E9 pol inh: 99

Results for CCCNS(=O)(=O)c1ccc2c(c1)n(C)c(=O)c(=O)n2C ?
VACV E9 pol inh: 105

How did CCCc1[nH]nc2c1C(c1cc(OC)c(OC(C)=O)c(OC)c1)C(C#N)=C(N)O2 (stereo unspecified) do in these assays?
VACV E9 pol inh: 105

How did Cc1sc2cc(-[n+]3ccc(O)cc3)ccc2[n+]1-c1ccccc1 do in these assays?
VACV E9 pol inh: 105

Results for O=C(CN1C(=O)/C(=C/c2ccccc2)Sc2ccccc21)N1CCCC1 ?
VACV E9 pol inh: 86

What do the screens show for `Cc1c(CNCCc2c[nH]c3ccccc23)c(C(=O)O)c(C)n1Cc1ccc(F)cc1Cl`?
VACV E9 pol inh: 92

What do the screens show for `OC(c1ccccc1)c1ccc2c(c1)c1c3n2CCNC3CCC1` (stereo unspecified)?
VACV E9 pol inh: 102

Results for O=C1CCCC2=C1C(c1cccs1)C1=C(CCCC1=O)O2 ?
VACV E9 pol inh: 110

How did CC(C)c1ccccc1NC(=O)CN1C(=O)c2ccccc2C1=O do in these assays?
VACV E9 pol inh: 100

Results for Clc1ccc(C(c2ccccc2Cl)C(Cl)Cl)cc1 (stereo unspecified) ?
VACV E9 pol inh: 99

Results for CC(=O)Oc1ccccc1-n1c(C)nc(=O)c(-c2ccccc2)c1C ?
VACV E9 pol inh: 101

Results for CCOc1ccc2ccccc2c1C=Nc1ccccc1 ?
VACV E9 pol inh: 100

What do the screens show for `COc1ccccc1/C=C/C(=O)Nc1nc(N)n(-c2ccccc2)n1`?
VACV E9 pol inh: 101

How did O=C(COC(=O)C1(c2ccccc2F)CCCC1)c1cccs1 do in these assays?
VACV E9 pol inh: 100

How did CNC1(c2ccccc2Cl)CCCCC1=O (stereo unspecified) do in these assays?
VACV E9 pol inh: 102

How did Cc1ccc(N2C(=O)c3ccccc3C2C(=O)c2ccc(C)cc2O)cc1 (stereo unspecified) do in these assays?
VACV E9 pol inh: 99

What do the screens show for `CC(=O)Oc1ccc2cc(-c3nc4ccccc4s3)c(=O)oc2c1`?
VACV E9 pol inh: 99

What do the screens show for `Cc1noc(/C=C/N2CCOCC2)c1S(=O)(=O)N1CCN(c2ccc(F)cc2)CC1`?
VACV E9 pol inh: 103

What do the screens show for `Cc1cc(C)nc(N2CC(=O)N(CCOc3ccc(Br)cc3)C2=O)n1`?
VACV E9 pol inh: 94

What do the screens show for `O=C(NC(=O)c1csc(-c2ccc(C(F)(F)F)cc2Cl)n1)Nc1ccc(F)cc1`?
VACV E9 pol inh: 103

What do the screens show for `Cc1ccc2c(=O)cc(-c3ccc(F)cc3)oc2c1`?
VACV E9 pol inh: 100

How did CCOC(=O)N1CCN(C(=O)CN(C)S(=O)(=O)c2ccc3c(c2)c(=O)n(C)c(=O)n3C)CC1 do in these assays?
VACV E9 pol inh: 103

What do the screens show for `Cc1c(C(=O)N(C)Cc2ccccc2)sc2ncn(CC(=O)N3CC(C)CC(C)C3)c(=O)c12` (stereo unspecified)?
VACV E9 pol inh: 99

Results for O/C(=C\c1ccc2ccccc2n1)c1ccc(O)cc1O ?
VACV E9 pol inh: 93

How did CC1CCCCN1C(=O)c1cccs1 (stereo unspecified) do in these assays?
VACV E9 pol inh: 100

How did CNC(=O)CSc1ncn[nH]1 do in these assays?
VACV E9 pol inh: 77

How did O=C1c2ccccc2-c2n[nH]c(=O)c3ccc(N4CCOCC4)c1c23 do in these assays?
VACV E9 pol inh: 99

What do the screens show for `CC1(C)CC(=O)c2c(C(=O)O)coc2C1`?
VACV E9 pol inh: 100

Results for Cc1cccc(C)c1NC(=O)C(c1ccc(N(C)C)cc1)N1C(=O)CC1c1ccco1 (stereo unspecified) ?
VACV E9 pol inh: 98

How did CCOC(=O)c1c(CC(C)C)csc1N do in these assays?
VACV E9 pol inh: 97

What do the screens show for `COC(=O)c1c(C)c(C)[nH]c(=O)c1C#N`?
VACV E9 pol inh: 100

How did CCOc1cccc2sc(NC(=O)c3ccccc3F)nc12 do in these assays?
VACV E9 pol inh: 105

How did O=C(COC(=O)CC1CCCC1)Nc1cc(C(F)(F)F)ccc1Cl do in these assays?
VACV E9 pol inh: 107

Results for Cc1cc2c(cc3c(=O)n(CC(=O)NCCN4CCOCC4)ncn32)s1 ?
VACV E9 pol inh: 100

How did Cc1c(C(=O)Nc2ccccc2)sc2ncn(CC(=O)N3CCC(C)CC3)c(=O)c12 do in these assays?
VACV E9 pol inh: 107

What do the screens show for `COc1cc(OC)c(NC(=O)c2ccc3nc(N4CCOCC4)sc3c2)cc1Cl`?
VACV E9 pol inh: 105

What do the screens show for `O=C(O)COc1cccc(F)c1`?
VACV E9 pol inh: 99

What do the screens show for `O=C(CN1C(=O)c2ccccc2S1(=O)=O)N1CCOCC1`?
VACV E9 pol inh: 104

How did CC(C)(C)c1ccc(Cn2cnc(C#N)c2C#N)cc1 do in these assays?
VACV E9 pol inh: 111

How did O=C1CSC(=S)N1c1cccc(C(F)(F)F)c1 do in these assays?
VACV E9 pol inh: 98

Results for O=C(c1ccccc1)N1c2ccccc2OC1c1ccc2c(c1)OCO2 (stereo unspecified) ?
VACV E9 pol inh: 102

How did O=C(CSc1nc2ccccc2c(=O)n1-c1ccccc1)N1CCCCC1 do in these assays?
VACV E9 pol inh: 100

Results for Cc1cn(C2CC(NC(=O)C(C)(C)C)C(CO)O2)c(=O)[nH]c1=O (stereo unspecified) ?
VACV E9 pol inh: 96

What do the screens show for `CCOC(=O)c1c(C)c(NC(C)=O)c(C)n1C(C)=O`?
VACV E9 pol inh: 99

How did O=C(c1cc2c(Cl)nc3ccccc3c2s1)N1CCC2(CC1)OCCO2 do in these assays?
VACV E9 pol inh: 99

Results for Cc1ccc(C(=O)NC(CC(C)C)C(=O)O)cc1 (stereo unspecified) ?
VACV E9 pol inh: 100

Results for COC(=O)CCn1c(=O)c2cccn2c2ccccc21 ?
VACV E9 pol inh: 97

Results for CCc1ccccc1NC(=O)CC1Nc2ccccc2NC1=O (stereo unspecified) ?
VACV E9 pol inh: 94

How did C/C(=C\c1nsc(Nc2ccccc2)n1)NCCc1ccccc1 do in these assays?
VACV E9 pol inh: 88

These rows are one share of the data; the hit share may differ from the screen's.
